Screens as filed in PubChem BioAssay.
Vif A3G: inhibitors of Vif binding to APOBEC3G peptide, primary screen, biochemical, TR-FRET, GST-Vif 1-94, biotin-A3G peptide, dose response retest (AID 1117319). TR-FRET GST-Vif / biotin-A3G peptide binding; higher % means a stronger effect; test concentration not given here; strong numbers were not always called active. inhibition, %, or IC50 in µM where a hit was titrated. 260,000 compounds, 0.57% hits;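 active means above the screen mean plus three standard deviations and confirmed in dose response; inconclusive means results disagree or hit not tested in dose response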;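 further: Vif residues 1-94 fused to GST binding biotinylated APOBEC3G peptide 110-148; 0% = full assay without inhibitor and 100% = GST in place of GST-Vif; retest series ran down from 100 µM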
AF4-AF9 inh: inhibitors of AF4 peptide binding to AF9, primary screen, biochemical, AlphaScreen, biotin-AF4 peptide, FLAG-AF9, single point. inhibition, % at 10 µM. 350,000 compounds, 0.47% hits;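 active means every replicate reaching a set inhibition limit, whatever the replicate mean, cut at about 25% in these data; inconclusive means mean inhibition reaches that limit but some replicates miss it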;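 further: 0% = plate neutral control median and 100% = total signal loss; the record names both 10 and 1 µM as test concentration; the first replicate is given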
HNF4A DNA FP: change in binding of human HNF4A to DNA, primary screen, biochemical, fluorescence polarization, FITC-DNA; Hepatocyte nuclear factor 4-alpha (Homo sapiens), P41235; 1 h; activity change, % at 10 µM; 360,000 compounds, 0.3% hits; AID 1224865, 2016; in the data active means activity change above about 30%, passing the limit was not always enough;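 further: controls were the assay level and a saturating level of protein; the project sought stronger binding though the title names inhibitors; some compounds called inactive have numbers as strong as hits; positive values seem to mean higher polarization but the record does not say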
Target sequence (P41235 whole entry, looked up): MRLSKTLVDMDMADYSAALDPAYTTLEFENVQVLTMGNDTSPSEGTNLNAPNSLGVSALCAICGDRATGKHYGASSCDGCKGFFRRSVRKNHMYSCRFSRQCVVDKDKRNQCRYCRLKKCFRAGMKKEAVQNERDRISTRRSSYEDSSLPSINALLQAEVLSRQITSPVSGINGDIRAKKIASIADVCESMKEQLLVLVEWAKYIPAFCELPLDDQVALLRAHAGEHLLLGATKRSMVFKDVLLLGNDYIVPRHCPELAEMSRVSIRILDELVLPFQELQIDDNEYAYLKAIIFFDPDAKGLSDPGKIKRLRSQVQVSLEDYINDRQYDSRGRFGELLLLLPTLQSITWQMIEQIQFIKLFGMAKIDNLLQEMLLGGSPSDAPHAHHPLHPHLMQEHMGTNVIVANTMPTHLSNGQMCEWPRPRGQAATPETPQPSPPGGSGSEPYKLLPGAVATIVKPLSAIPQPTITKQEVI
FGF22 binding: binders of human FGF22 protein, primary screen, FGF22 synaptogenesis inhibitor project, biophysical, thermal shift, single point; AID 651658, 2012; Fibroblast growth factor 22 (Homo sapiens), Q9HCT0; 340,000 compounds, 1.5% hits; calls only at 9.99 µM; recombinant FGF22 thermal shift, SYPRO orange fluorescence; percent of sucrose octasulfate shift, DMSO zero;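 active means melting point raised past a set limit in the mean and every replicate; inconclusive means no clear call; three in four hits are not shown here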
Target sequence (Q9HCT0 whole entry, looked up): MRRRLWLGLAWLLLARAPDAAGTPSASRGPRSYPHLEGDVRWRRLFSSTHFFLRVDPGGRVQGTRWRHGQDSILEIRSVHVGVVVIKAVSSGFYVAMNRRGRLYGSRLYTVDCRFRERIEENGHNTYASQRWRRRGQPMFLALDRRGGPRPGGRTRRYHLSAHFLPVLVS
ALR inh: inhibitors of human ALR sulfhydryl oxidase, primary screen, biochemical, H2O2 detection, HRP-luminol luminescence, single point. inhibition, % (concentration not given with the values). 290,000 compounds, 3.8% hits. purified ALR, DTT oxidation. AID 485317, 2010;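 active means mean and each replicate at 75% or more; inconclusive means only one of the two met; inactive means neither met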;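 further: stock transfer was 7.5 nL into about 7.5 µL; 0% = neutral wells and 100% = wells with inactivated enzyme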
Target sequence (P55789 whole entry, looked up): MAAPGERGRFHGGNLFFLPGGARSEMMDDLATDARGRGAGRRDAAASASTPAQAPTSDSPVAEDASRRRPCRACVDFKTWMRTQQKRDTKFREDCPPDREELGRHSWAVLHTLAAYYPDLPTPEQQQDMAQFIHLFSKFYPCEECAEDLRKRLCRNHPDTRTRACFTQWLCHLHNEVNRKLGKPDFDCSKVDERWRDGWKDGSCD
rRNA inh HTS: reduced GFP signal of wild-type E. coli, primary screen, bacterial rRNA inhibitor project, GFP/RFP fluorescence, OD600, single point; GFP signal change (wild-type ribosome), % (concentration not given with the values); AID 720706, 2013; E. coli WT GFP vs humanized-ribosome RFP mutants, 24 h; active compounds read low; DMSO median 0, no signal -100; 350,000 compounds, 1.6% hits;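 active means significant combined selectivity score with lowered wild-type GFP, culture density cut under 30%, mutant RFP and density less affected; inactive means any of these conditions unmet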; further: one replicate is shown; some compounds called inactive have numbers as strong as hits
Ecoli growth: E. coli growth inhibition, primary screen, OD600; 330,000 compounds, 0.21% hits; OD600 absorbance (no concentration beside the values); Escherichia coli growth, 23 h; active compounds read low;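 active means OD600 absorbance below the run mean of sample wells minus 3.6 SD, in any replicate, cut at about 0.56 in these data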;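 further: stock transfer was 300 nL into about 60 µL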
rRNA inh HTS OD600: second read-out of rRNA inh HTS, no call of its own (marks repeat the call); OD600 change, %; measured here: OD600 growth;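 optical density of the mix in the first replicate; 0 = DMSO median and -100 = no signal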
rRNA inh HTS RFP: second read-out of rRNA inh HTS, no call of its own (marks repeat the call); RFP signal change, %; measured here: RFP humanized mutant strains;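 first replicate; 0 = DMSO median and -100 = no signal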
The depositor's hits bear a star; i = inactive; ? = inconclusive; · = not tested or not shown; & = joins results of further samples. An excerpt (hit frequency here may not be typical).

SMILES	Vif A3G	AF4-AF9 inh	HNF4A DNA FP	FGF22 binding	ALR inh	rRNA inh HTS	rRNA inh HTS OD600	rRNA inh HTS RFP	Ecoli growth
Cc1ccc2nc3c(cc2c1)c(NS(=O)(=O)c1ccccc1)nn3CC(C)C	25%	·	-0.5	·	-4	·	·	·	0.74
COc1ccc(NC(=O)CSc2nc(C3CC3)nc3ccccc23)cc1	·	-3.9	-2.6	i	-14	4	-6	-0.1	0.65
Cc1ccc(NS(=O)(=O)c2ccc(Cl)c(C(=O)Nc3ccccc3-c3nc4ccccc4[nH]3)c2)cc1C	1%	·	-2.3	·	-13	·	·	·	0.7
O=C(NCCc1ccc2c(c1)OCCO2)c1cccc(S(=O)(=O)N2CCCC2)c1	3%	-24	2.8	i	3	-2	-5	0.9	·
NNC(=O)CCc1nc2ccc(O)cc2[nH]1	?	-0.4	-2.2	i	96*	12	15	-4.4	·
CC[C@@H](C)[C@@H](CO)NC(=O)[C@H]1O[C@@H](n2cnc3c(N)ncnc32)[C@H](O)[C@@H]1O	·	-2.4	-0.3	i	·	2	8	-2.5	·
O=C(NCc1ccccn1)c1cn(Cc2ccccc2)nn1	0%	·	2.8	·	0	·	·	·	0.67
CC(C)(C)C1(O)CC(C(F)(F)F)=NN1C(=O)CCCc1ccccc1 (centres undefined)	·	-4.1	-0.6	i	-1	11	6	3.8	0.66
CCOC(=O)C1=C(C)OC(N)=C(C#N)C1c1ccccc1 (centres undefined)	1%	-1.3	-0.6	i	-1	7	-6	-0.4	0.69
COc1ccccc1S(=O)(=O)N[C@H]1CC[C@@H](CCNC(=O)C2CC2)O[C@@H]1CO	·	0.1	·	i	·	2	4	-2.2	·

Continued; the last 2 above are carried over.
SMILES	Vif A3G	AF4-AF9 inh	HNF4A DNA FP	FGF22 binding	ALR inh	rRNA inh HTS	rRNA inh HTS OD600	rRNA inh HTS RFP	Ecoli growth
CCOC(=O)C1=C(C)OC(N)=C(C#N)C1c1ccccc1 (centres undefined)	1%	-1.3	-0.6	i	-1	7	-6	-0.4	0.69
COc1ccccc1S(=O)(=O)N[C@H]1CC[C@@H](CCNC(=O)C2CC2)O[C@@H]1CO	·	0.1	·	i	·	2	4	-2.2	·
CCCC1CC(c2csc(N)n2)CCO1 (centres undefined)	-3%	·	1.4	·	14	·	·	·	0.65
CCC1CCCCN1C(=O)CCn1ccnc1 (centres undefined)	-9%	-0.2	1.4	i	-7	15	11	-2.8	0.65
Cc1cc(C)c(CN2CCN(C(=O)Cn3cnc(C(=O)Nc4ccc(C)c(C)c4)n3)CC2)c(C)c1	·	-4.6	0.1	i	·	1	-6	-0.3	0.68
CC(C)CNc1nc(N)c([N+](=O)[O-])c(N2CCCCCC2)n1	0%	3.4	1.0	i	1	-49	-74	-11	0.69
COc1cccc(Cl)c1NC(=O)N1CCN(c2cc(C)nc3ccccc23)CC1	16%	2.2	-0.4	·	3	-16	-8	3.1	0.69
O=C(Nc1ccccc1)c1cc(C2CCCN(C(=O)OCc3ccccc3)C2)on1 (centres undefined)	·	-0.8	0.0	i	·	-4	-14	0.8	·
COc1cccc(C2C3=C(CC(C)(C)CC3=O)Nc3cc(OC)c(OC)cc32)c1 (centres undefined)	·	1.5	0.1	i	-9	3	0	-0.9	0.74
COc1ccc(NC(=O)CSc2nnnn2-c2ccccc2OC)c(OC)c1	·	-3.4	-4.1	i	-5	7	-8	-2.7	0.68
CCCC1=NN(C(=O)C(=O)Nc2ccc(Br)cc2)C(O)(C(F)(F)F)C1 (centres undefined)	-13%	0.6	-0.7	i	-22	-55	-79	-28	0.66
C=CCNC(=O)Nc1ccc(F)cc1F	·	-4.8	1.8	i	-4	3	9	0.6	0.7

Entries listed so far marked active in ALR inh:
molecule,Vif A3G,AF4-AF9 inh,ALR inh,rRNA inh HTS,rRNA inh HTS OD600,rRNA inh HTS RFP
NNC(=O)CCc1nc2ccc(O)cc2[nH]1,?,-0.4,96*,12,15,-4.4

Continued:
SMILES	Vif A3G	AF4-AF9 inh	HNF4A DNA FP	FGF22 binding	ALR inh	rRNA inh HTS	rRNA inh HTS OD600	rRNA inh HTS RFP	Ecoli growth
CN(CCOc1ccc(-c2ccn(S(=O)(=O)c3ccc(Cl)cc3)n2)cc1)c1ccccn1	-10%	·	1.0	·	9	·	·	·	0.74
CCCN(CC(=O)Nc1ccccc1OC)C(=O)c1ccc2[nH]c3c(c2c1)CC(C)CC3 (centres undefined)	2%	4.1	2.7	i	-10	-5	-7	1.7	0.64
O=C(COC(=O)c1ccc2c(c1)S(=O)(=O)N=C1CCCCCN12)NCCc1ccc(F)cc1	21%	-2.4	-3.3	i	-1	15	11	-0.2	0.7
CCOC(=O)Cc1csc(NC(=O)c2ccc(C)o2)n1	-2%	·	0.8	·	8	·	·	·	0.69
Cc1nc2ccccn2c1C(=O)CSc1ccccc1	1%	-0.2	-0.6	i	28	-37*	-25*	-9.2*	0.62
CCCCNC(=S)NNC(=O)c1nn(C)c(C)c1Cl	19%	·	-0.2	·	3	·	·	·	0.73
COc1ccc(CC(=O)NCCc2ccc(Cl)cc2Cl)cc1	·	-1.9	5.2	i	-11	-8	3	-0.8	0.66
COc1cccc(C(=O)N/N=c2/oc3ccccc3cc2C(N)=O)c1	·	-3.1	1.1	i	-13	-4	4	-1.0	·
CC(C)Nc1nnc(Sc2ccc(Cl)cc2[N+](=O)[O-])s1	·	·	-0.5	·	-7	·	·	·	0.7
Cc1ccc(S(=O)(=O)N2C[C@@H](O)COC[C@@H]3O[C@H](CC(=O)NCc4ccc(Cl)c(Cl)c4)CC[C@H]32)cc1	·	0.1	·	i	·	-30	-65	4.0	·
O=C(CCC(=O)c1cccs1)NNC(=O)c1cccc(Cl)c1	-5%	-5.7	0.7	i	·	5	7	-0.6	0.68
C[C@H](CO)N1C[C@H](C)[C@H](CN(C)C(=O)Cc2ccccn2)Oc2cc(-c3cccc(C(=O)N(C)C)c3)ccc2S1(=O)=O	·	1.7	·	i	·	2	-2	-2.0	·
CCOC(=O)c1ccc(NC(=S)NC(=O)C2CCCC2)cc1	·	-1.1	1.7	i	2	-20	-9	-3.6	0.64
C[C@H]1CN([C@@H](C)CO)C(=O)c2cc(C#CC3CC3)cnc2O[C@@H]1CN(C)Cc1ccncc1	·	3.0	·	i	·	5	7	1.9	·
NNC(=O)CCn1nnc2ccccc21	·	2.4	-2.3	i	12	2	0	-1.0	0.68
CCCCOc1ccc(C2=NNC(=O)CC2)cc1	·	2.7	-1.9	i	0	1	4	0.0	0.68
CC(=O)Nc1ccccc1NC(=O)c1cc(C)ccc1C	-1%	-0.8	-1.7	·	0	8	0	-2.8	0.71
CCCC(=O)N(CCN1CCOCC1)c1nc2cc(C)c(C)cc2s1	·	0.9	0.0	i	95*	5	2	-2.8	0.65
NCCOc1ccccc1-c1ccccc1	4%	·	0.4	·	-1	·	·	·	0.78
Cc1ccc(NC(=O)c2nc[nH]c2C(=O)N2CCc3ccccc3C2)cc1	·	4.3	-2.9	i	0	16	9	-0.9	0.71
C[C@@H]1CN([C@H](C)CO)C(=O)CCCn2nncc2CO[C@H]1CN(C)S(=O)(=O)c1ccc2c(c1)OCCCO2	-8%	-0.4&0.2	3.0	i	·	6&-1	6&0	2.9&0.7	·
O=C(OCc1c(F)cccc1Cl)c1cc([N+](=O)[O-])ccc1N1CCOCC1	-4%	7.0	4.2	i	-2	-10	-22	-5.3	0.69
Cc1ccc2c(c1)nc1c3ccccc3nc(-c3ccccc3N)n21	-3%	-1.2	-4.6	i	·	-13	-16	8.5	·
C=CCN(CC=C)C(=O)COC(=O)c1n[nH]c2ccccc12	22%	-3.2	3.4	i	·	10	5	-2.0	0.72
Cc1cccc(C)c1NC(=O)C1C(c2ccccc2)=Nc2ccccc2N1C(=O)c1cnccn1 (centres undefined)	·	3.5	3.8	·	·	-38	-60	-10	·
CCCCN1CNC(=S)N(CCc2ccccc2)C1	-14%	0.0	-1.6	i	1	4	-5	-2.6	0.69
C[C@@H]1C(=O)O[C@@H]2[C@H](O)C34[C@H]5C[C@@H](C(C)(C)C)C36[C@H](OC(=O)[C@@H]6O)OC4(C(=O)O5)[C@@]12O (some centres undefined)	30%	0.6	-3.4	i	-2	4	6	11	·
COc1ccccc1OCCC(=O)OCC(=O)Nc1ccc2c(c1)OCO2	9%	-2.3	2.4	i	0	-2	-4	2.7	0.68
Cc1noc(C)c1NC(=O)Nc1ccc2c(c1)C(=O)N(C)[C@@H]1CC[C@H](CC(=O)N[C@H]3CCN(Cc4ccccc4)C3)O[C@H]1CO2	·	0.7	·	i	·	5	8	-2.7	·
C=CCCC1CN(Cc2ccc(OC)cc2)S(=O)(=O)c2c(F)cccc2O1 (centres undefined)	·	-1.1	·	i	·	-8	-13	1.5	·
N#Cc1c(-c2ccccc2)cc2nc3ccccc3n2c1N	1%	-2.4	-0.5	i	-8	11	16	3.0	0.71
COc1ccc(C#Cc2cnc3c(c2)C(=O)N([C@H](C)CO)C[C@H](C)[C@H](CN(C)S(C)(=O)=O)O3)cc1OC	·	-1.5	·	i	·	6	8	1.4	·
CC(C)OC(=O)NCCOC(=O)Nc1ccc(Cl)cc1	·	2.9	-1.0	i	-3	-21*	-14*	1.2*	0.66
Cc1cc(OCc2cc(C(=O)N(C)C3CCOC3)no2)cc(C)c1Cl (centres undefined)	·	0.3	8.2	i	1	-4	-8	-1.3	0.68
CN(CC(=O)Nc1c(Cl)cccc1Cl)C(=O)CCC(=O)c1ccccc1	2%	8.4	1.4	i	·	2	3	-1.4	0.69
COc1ccc2c3c(n(C)c2c1)[C@H](CO)N(Cc1cccnc1)CC31CN(C(=O)NC(C)C)C1	·	1.7	·	i	·	2	0	-4.3	·
COC(=O)Nc1nnc(-c2ccco2)s1	4%	-0.8	3.7	i	2	3	11	2.1	0.68
Cc1ccccc1NC1=C(Cl)C(=O)OC1NC(=O)c1ccccc1 (centres undefined)	2%	3.0	0.7	i	·	19	11	2.8	0.69
Cc1cccc(NC(=O)COc2cccc3c2CCNC3=O)c1	0%	-1.3	0.0	i	·	-18*	-13*	-0.5*	·
COc1cc(CN2CCCC(CO)(Cc3cccc(Cl)c3)C2)cc2c1OCO2 (centres undefined)	6%	-18	5.6	i	·	-4	-8	-0.4	0.69
CO[C@H]1CC[C@H]2CCOc3ccc(C#N)cc3C(=O)N(C)[C@@H](C)C(=O)N(C)C[C@H]1O2	·	4.1	·	i	·	3	5	0.4	·
O=C(c1ccc(S(=O)(=O)NCc2ccco2)cc1)N1CCN(c2ccccc2)CC1	2%	6.5	-2.5	·	34	-9	-6	3.5	0.66

Single records (already shown). Order of screens: Vif A3G	AF4-AF9 inh	HNF4A DNA FP	FGF22 binding	ALR inh	rRNA inh HTS	rRNA inh HTS OD600	rRNA inh HTS RFP	Ecoli growth
Shown for `COc1ccc(C#Cc2cnc3c(c2)C(=O)N([C@H](C)CO)C[C@H](C)[C@H](CN(C)S(C)(=O)=O)O3)cc1OC` = ·	-1.5	·	i	·	6	8	1.4	·
Shown for `CO[C@H]1CC[C@H]2CCOc3ccc(C#N)cc3C(=O)N(C)[C@@H](C)C(=O)N(C)C[C@H]1O2` = ·	4.1	·	i	·	3	5	0.4	·
Shown for `COC(=O)Nc1nnc(-c2ccco2)s1` = 4%	-0.8	3.7	i	2	3	11	2.1	0.68
Shown for `COc1ccc2c3c(n(C)c2c1)[C@H](CO)N(Cc1cccnc1)CC31CN(C(=O)NC(C)C)C1` = ·	1.7	·	i	·	2	0	-4.3	·
